Assay outcomes: PubChem, Broad Institute
UUG fidelity = modulators of start codon recognition fidelity in yeast; S. cerevisiae UUG-firefly luciferase reporter, luminescence/redox ratio; activity score, % at 18.7 µM; 0.13% of 350,000 active;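 active = replicate mean at a twofold rise or more, about +100% in these data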;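 note: firefly luciferase made from a UUG start codon reports start codon fidelity; reporter light over untreated wells divided by growth signal over untreated wells; some hits fall short of that in this replicate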
* hit, by the source's call. A portion of the library; count on the stated rates, not on these rows.

entry	UUG fidelity	Structure
1	2	CC(=O)N1[C@@H](CO)[C@@H]2c3ccccc3N(S(=O)(=O)c3cccc(C)c3)C[C@@H]21
2	-11	C[C@@H]1CN([C@H](C)CO)C(=O)c2cccc(NS(=O)(=O)c3ccc(F)cc3)c2O[C@@H]1CN(C)C(=O)Nc1cccc2ccccc12
3	-6	C[C@@H]1CN([C@H](C)CO)C(=O)c2cc(NC(=O)Cc3cn(C)c4ccccc34)ccc2O[C@@H]1CN(C)Cc1ccc(C(=O)Nc2ccccc2N)cc1
4	18	CCCNC(=O)N1C[C@H](C)[C@H](OC)CN(C)C(=O)c2ccc(NC(=O)CCC)cc2OC[C@H]1C
5	3	C[C@H]1CN([C@@H](C)CO)C(=O)CCCn2nncc2CO[C@@H]1CN(C)Cc1ccc(O)cc1
6	-4	O=C(c1cccc(F)c1)N1CCCCN2[C@H](C1)[C@H](c1ccc(/C=C/c3ccccc3)cc1)[C@@H]2CO
7	-10	O=C(Nc1ccccc1Cl)N1[C@@H]2CNc3ccccc3[C@@H]2[C@@H]1CO
8	13	O=C(NC[C@H]1[C@H](c2ccccc2)[C@@H](CO)N1Cc1cccnc1)c1ccccn1
9	-29	C[C@@H]1CN([C@H](C)CO)C(=O)CCCn2cc(nn2)CO[C@@H]1CN(C)Cc1cccc(C(=O)O)c1
10	-13	O=C(Nc1ccccc1F)N1[C@H](CO)[C@@H]2c3ccccc3NC[C@@H]21
11	-1	CCCC#Cc1ccc2c(c1)[C@@H]1[C@@H](CCN1C(=O)CC1CC1)[C@@H](CO)N2C
12	30	CCC(=O)N(C)C[C@H]1[C@H](c2ccccc2)[C@@H](CO)N1C(=O)Cc1ccncc1
13	-23	C[C@@H]1CN([C@@H](C)CO)C(=O)c2cccc(NC(=O)c3ccncc3)c2O[C@H]1CN(C)S(=O)(=O)c1cccs1
14	-9	COCCN(C[C@H]1[C@H](c2ccccc2)[C@H](CO)N1C(C)=O)C(=O)c1ccncc1
15	15	CC(C)NC(=O)N1CCCCN2[C@H](CO)[C@@H](c3ccc(C#CC4CC4)cc3)[C@@H]2C1
16	13	O=C(C[C@@H]1CC[C@@H]2[C@H](COC[C@H](O)CN2C(=O)Nc2ccc(Cl)c(Cl)c2)O1)NCc1ccccc1
17	-5	C[C@H]1CN([C@@H](C)CO)C(=O)c2cc(NC(=O)c3ccncc3)ccc2O[C@@H]1CN(C)Cc1ccc(C(=O)O)cc1
18	14	COc1ccc(NC(=O)N(C)C[C@H]2Oc3ccc(NS(=O)(=O)c4ccc(F)cc4)cc3C(=O)N([C@@H](C)CO)C[C@@H]2C)cc1
19	8	Cn1cnc(S(=O)(=O)N2CCCCN3[C@H](CO)[C@H](c4ccc(-c5ccccc5F)cc4)[C@@H]3C2)c1
20	15	CO[C@@H]1CN(C)C(=O)c2cc(NS(C)(=O)=O)ccc2OC[C@@H](C)N(S(=O)(=O)CC(F)(F)F)C[C@H]1C
21	-14	CC(C)NC(=O)N(C)C[C@H]1Oc2ccc(NS(C)(=O)=O)cc2CC(=O)N([C@H](C)CO)C[C@@H]1C
22	9	C[C@H]1CN([C@@H](C)CO)C(=O)c2cc(NC(=O)Nc3ccc(C(F)(F)F)cc3)ccc2O[C@H]1CN(C)C(=O)Nc1ccc2c(c1)OCO2
23	-5	CNC[C@H]1Oc2ccc(NS(=O)(=O)c3ccc(Cl)cc3)cc2CC(=O)N([C@H](C)CO)C[C@H]1C
24	3	C[C@H](NC(=O)C[C@H]1CC[C@H]2[C@@H](COC[C@@H](O)CN2C(=O)Nc2ccccc2)O1)c1ccccc1
25	8	CN1C(=O)c2cc(NC(=O)c3ccccc3Cl)ccc2OC[C@@H]2O[C@@H](CC(=O)O)CC[C@@H]21
26	-3	CN(C)C(=O)c1cccc(-c2ccc([C@@H]3[C@H]4CN(S(C)(=O)=O)CCCCN4[C@H]3CO)cc2)c1
27	0	C[C@@H]1CN([C@H](C)CO)C(=O)c2cc(NC(=O)Nc3ccc(C(F)(F)F)cc3)ccc2O[C@@H]1CN(C)Cc1ccc(C(=O)O)cc1
28	-14	C[C@@H]1CN([C@H](C)CO)C(=O)c2cccc(NC(=O)c3ccncc3)c2O[C@@H]1CN(C)C(=O)Nc1ccccc1
29	-7	O=C(C[C@@H]1CC[C@@H]2[C@H](COC[C@H](O)CN2Cc2ccc(F)cc2)O1)NCCc1ccccc1
30	-9	Cc1ccc(S(=O)(=O)Nc2ccc3c(c2)CC(=O)N([C@@H](C)CO)C[C@@H](C)[C@H](CN(C)Cc2ccncc2)O3)cc1
31	-1	C[C@@H]1CN([C@H](C)CO)C(=O)c2cc(C#CCc3ccccc3)cnc2O[C@H]1CN(C)CC1CCCC1
32	-1	O=C(Nc1ccccc1)N1C[C@@H]2[C@H](c3ccccc31)[C@@H](CO)N2CC1CCCC1
33	-14	C[C@@H]1CN([C@H](C)CO)C(=O)CCCn2nncc2CO[C@@H]1CN(C)C(=O)Nc1cccc(F)c1
34	-1	O=C(C[C@H]1C[C@H]2c3cc(NC(=O)Nc4ccc(F)cc4)ccc3O[C@H]2[C@H](CO)O1)NCC1CC1
35	15	Cc1noc(C)c1NC(=O)Nc1cccc2c1O[C@@H](CN(C)Cc1ccc(-c3ccccc3)cc1)[C@H](C)CN([C@@H](C)CO)C2=O
36	14	O=C(c1ccc(F)cc1)N1CCCCN2[C@H](CO)[C@@H](c3ccc(-c4ccccc4)cc3)[C@H]2C1
37	-1	Cc1ccccc1S(=O)(=O)N(C)C[C@H]1OCc2ccccc2-c2c(n(C)c3ccccc23)C(=O)N([C@H](C)CO)C[C@@H]1C
38	5	CN1[C@@H]2CN(C(=O)C3CCOCC3)c3ccccc3[C@@H]2[C@@H]1CO
39	3	O=C(c1ccccc1F)N1C[C@@H]2[C@H](c3ccccc31)[C@H](CO)N2C(=O)c1ccccc1
40	-4	CN(C)CC(=O)N1CCCCN2[C@@H](CO)[C@@H](c3ccc(-c4cccnc4)cc3)[C@@H]2C1
41	6	O=S(=O)(c1cccs1)N1CCCCN2[C@H](CO)[C@H](c3ccc(Br)cc3)[C@H]2C1
42	-2	CC(C)NC(=O)N1CCCCN2[C@H](CO)[C@@H](c3ccc(C#C[C@@H](C)O)cc3)[C@@H]2C1
43	-4	C[C@H](CO)N1C[C@H](C)[C@@H](CN(C)C(=O)Nc2ccccc2)Oc2ccc(NS(C)(=O)=O)cc2C1=O
44	-3	OC[C@@H]1[C@@H](c2ccc(/C=C/c3ccccc3)cc2)[C@@H]2CN(Cc3cncnc3)CCCCN12
45	-3	C[C@@H]1CN([C@H](C)CO)C(=O)c2cc(NC(=O)CCN3CCOCC3)ccc2O[C@@H]1CN(C)C(=O)Nc1ccccc1
46	-8	CC(=O)NC[C@@H]1[C@@H](c2ccc(-c3ccccc3)cc2)[C@@H](CO)N1C(=O)C1CCC1
47	0	COC(=O)C[C@@H]1CC[C@H]2[C@@H](COC[C@H](O)CN2S(=O)(=O)c2ccccc2C)O1
48	-11	COc1ccc(-c2ccc3c(c2)[C@@H]2[C@@H](CCN2S(=O)(=O)c2ccc(OC)cc2)[C@@H](CO)N3C)cc1
49	2	C[C@@H]1CN([C@H](C)CO)C(=O)c2cc(NC(=O)CCCN(C)C)ccc2O[C@@H]1CN(C)C(=O)Nc1cccc2ccccc12
50	0	COc1ccccc1-c1ccc([C@@H]2[C@H]3CN(C(=O)c4cccnc4)CCCCN3[C@H]2CO)cc1

Additional results follow:
entry	UUG fidelity	Structure
51	3	C[C@@H]1CN([C@H](C)CO)C(=O)Cc2cc(NC(=O)C3CCCCC3)ccc2O[C@@H]1CN(C)C(=O)Nc1ccc2c(c1)OCO2
52	5	CO[C@H]1CN(C)C(=O)c2cc(NC(=O)Nc3ccc(Cl)cc3)ccc2OC[C@@H](C)NC[C@@H]1C
53	5	CCCNC(=O)NC[C@H]1[C@H](c2ccc(C3=CCCCC3)cc2)[C@H](CO)N1C(C)=O
54	-7	CN(C)CC#Cc1ccc([C@H]2[C@H](CO)N3CCCCN(C(=O)C4CC4)C[C@@H]23)cc1
55	-3	COCC(=O)Nc1ccc2c(c1)OC[C@H](C)N(C(=O)COC)C[C@@H](C)[C@@H](OC)CN(C)C2=O
56	-29	O=C(Cc1ccccc1)N1CC[C@@H]2[C@H]1c1cc(C#Cc3ccccc3)ccc1N[C@@H]2CO
57	12	CCC(=O)N1[C@@H]2CN(C(=O)c3ccc4c(c3)OCO4)c3ccccc3[C@@H]2[C@@H]1CO
58	4	CO[C@H]1CN(C)C(=O)c2cc(NC(=O)C3CC3)ccc2OC[C@H](C)N(Cc2cc(F)ccc2F)C[C@@H]1C
59	-11	CCC(=O)Nc1ccc2c(c1)C(=O)N(C)[C@@H]1CC[C@H](CC(=O)O)O[C@@H]1CO2
60	8	COCC(=O)Nc1ccc2c(c1)C(=O)N(C)[C@@H]1CC[C@H](CC(=O)NCCc3ccncc3)O[C@@H]1CO2

By substructure, the entries above containing sulfur.
entry	UUG fidelity	Structure
1	2	CC(=O)N1[C@@H](CO)[C@@H]2c3ccccc3N(S(=O)(=O)c3cccc(C)c3)C[C@@H]21
2	-11	C[C@@H]1CN([C@H](C)CO)C(=O)c2cccc(NS(=O)(=O)c3ccc(F)cc3)c2O[C@@H]1CN(C)C(=O)Nc1cccc2ccccc12
13	-23	C[C@@H]1CN([C@@H](C)CO)C(=O)c2cccc(NC(=O)c3ccncc3)c2O[C@H]1CN(C)S(=O)(=O)c1cccs1
18	14	COc1ccc(NC(=O)N(C)C[C@H]2Oc3ccc(NS(=O)(=O)c4ccc(F)cc4)cc3C(=O)N([C@@H](C)CO)C[C@@H]2C)cc1
19	8	Cn1cnc(S(=O)(=O)N2CCCCN3[C@H](CO)[C@H](c4ccc(-c5ccccc5F)cc4)[C@@H]3C2)c1
20	15	CO[C@@H]1CN(C)C(=O)c2cc(NS(C)(=O)=O)ccc2OC[C@@H](C)N(S(=O)(=O)CC(F)(F)F)C[C@H]1C
21	-14	CC(C)NC(=O)N(C)C[C@H]1Oc2ccc(NS(C)(=O)=O)cc2CC(=O)N([C@H](C)CO)C[C@@H]1C
23	-5	CNC[C@H]1Oc2ccc(NS(=O)(=O)c3ccc(Cl)cc3)cc2CC(=O)N([C@H](C)CO)C[C@H]1C
26	-3	CN(C)C(=O)c1cccc(-c2ccc([C@@H]3[C@H]4CN(S(C)(=O)=O)CCCCN4[C@H]3CO)cc2)c1
30	-9	Cc1ccc(S(=O)(=O)Nc2ccc3c(c2)CC(=O)N([C@@H](C)CO)C[C@@H](C)[C@H](CN(C)Cc2ccncc2)O3)cc1
37	-1	Cc1ccccc1S(=O)(=O)N(C)C[C@H]1OCc2ccccc2-c2c(n(C)c3ccccc23)C(=O)N([C@H](C)CO)C[C@@H]1C
41	6	O=S(=O)(c1cccs1)N1CCCCN2[C@H](CO)[C@H](c3ccc(Br)cc3)[C@H]2C1
43	-4	C[C@H](CO)N1C[C@H](C)[C@@H](CN(C)C(=O)Nc2ccccc2)Oc2ccc(NS(C)(=O)=O)cc2C1=O
47	0	COC(=O)C[C@@H]1CC[C@H]2[C@@H](COC[C@H](O)CN2S(=O)(=O)c2ccccc2C)O1
48	-11	COc1ccc(-c2ccc3c(c2)[C@@H]2[C@@H](CCN2S(=O)(=O)c2ccc(OC)cc2)[C@@H](CO)N3C)cc1
